Screening data as filed in PubChem BioAssay.
Mtb bLac sens: beta-lactam sensitization of Mtb H37Rv. inhibition, % at 25 µM. M. tuberculosis H37Rv growth with meropenem, percent inhibition; hits of this screen are not shown here. AID 434955. 330,000 tested, 0.27% active;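 active = about 74% or more and at least 40 points above the plate without the antibiotic, then above 30% in a dose series; inconclusive = first-round hits that could not be retested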;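 note: growth measured after seven days incubation then overnight dye step; 0% = bacteria only wells and 100% = bacteria with antibiotic; twin plates without the antibiotic show which effects depend on it; some results filed as inactive read as strong as hits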
Mtb growth: M. tuberculosis H37Rv growth inhibitors, H37Rv strain (AID 1626). M. tuberculosis H37Rv growth inhibition; higher % means a stronger effect. inhibition, % at 10 µM, or IC50 in µM where a hit was titrated. 220,000 tested, 0.95% active;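 active = confirmed in a dose series; inconclusive = inhibition above 80% but not taken into the dose series; inactive = below 80% or under 30% at every dose of the series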;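 note: bacteria incubated seven days before Alamar blue readout; 0% = bacteria only wells and 100% = bacteria with antibiotic wells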
YopH PTP inh: inhibitors of Yersinia enterocolitica YopH tyrosine phosphatase. fluorescence Ex485/Em525. inhibition, %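 (about 10 µM by stock and volumes)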. 140,000 tested, 0.16% active;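 active = inhibition of 50% or more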;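 note: controls were vehicle for no effect and minimum signal wells for full effect; inactives centre near -20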
RecA splice inh: blocks M. tuberculosis RecA intein splicing. AID 2221. inhibition, %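 (about 9 µM by stock and volumes)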. P9WHJ3. cell-free RecA intein splicing, fluorescence. 290,000 tested, 0.75% active; in the data active = inhibition above about 30%; inconclusive = no clear call, values can overlap the other calls;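 note: 0% = vehicle wells and 100% = reference inhibitor control wells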
Target sequence (P9WHJ3 whole entry, looked up, canonical isoform): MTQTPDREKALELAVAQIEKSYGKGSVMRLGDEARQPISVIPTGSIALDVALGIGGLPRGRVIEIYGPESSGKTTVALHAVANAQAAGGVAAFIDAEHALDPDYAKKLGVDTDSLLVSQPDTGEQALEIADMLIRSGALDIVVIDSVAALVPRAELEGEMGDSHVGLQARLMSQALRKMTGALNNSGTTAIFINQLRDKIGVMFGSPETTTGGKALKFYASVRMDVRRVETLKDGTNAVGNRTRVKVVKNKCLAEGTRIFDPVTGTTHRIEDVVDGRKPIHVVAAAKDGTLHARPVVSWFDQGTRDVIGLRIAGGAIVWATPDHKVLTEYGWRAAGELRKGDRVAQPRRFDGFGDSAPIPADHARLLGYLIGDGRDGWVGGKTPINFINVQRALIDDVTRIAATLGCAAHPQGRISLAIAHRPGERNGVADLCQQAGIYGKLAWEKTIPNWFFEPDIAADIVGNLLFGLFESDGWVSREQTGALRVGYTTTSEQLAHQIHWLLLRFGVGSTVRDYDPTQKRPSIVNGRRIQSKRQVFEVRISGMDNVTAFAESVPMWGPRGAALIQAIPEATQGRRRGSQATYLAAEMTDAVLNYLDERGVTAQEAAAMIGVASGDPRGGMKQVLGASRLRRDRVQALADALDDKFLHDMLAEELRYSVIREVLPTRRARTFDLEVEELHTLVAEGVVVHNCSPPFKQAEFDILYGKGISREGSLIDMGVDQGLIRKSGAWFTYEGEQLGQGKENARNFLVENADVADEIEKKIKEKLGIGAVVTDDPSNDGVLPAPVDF
Arbovirus inh: antivirals against arbovirus infection | arbovirus infection cell-based antiviral screen | inhibition, % at 10 µM | 200,000 tested, 0.37% active | AID 1251;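 active = inhibition from about 30%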;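 note: bluetongue infection of BSR cells; cell survival read as ATP light after 72 h; 0% = infected wells without compound and 100% = uninfected wells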
Arbovirus inh repeat: recorded beside Arbovirus inh, whose call it bears; inhibition, %; measured here: 10K subset replicate screen; many hits read low in the repeat;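 first of two repeat runs on a subset; 0% = infected and 100% = uninfected wells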
The depositor's hits bear a star.

Screening Cc1cc(N2C(=O)C(O)=C(C(=O)c3cc4ccccc4o3)C2c2ccc(OC(C)C)cc2)no1 (configuration not stated) returned Mtb bLac sens 8.9 and RecA splice inh -0.6.
Screening CCN1C(=O)c2ccccc2S(=O)(=O)c2ccc(C(=O)NC(C)C)cc21 returned Mtb bLac sens -4.1 and RecA splice inh 0.0.
Cc1nc(Nc2ccc(Cl)c(Cl)c2)sc1C(=O)Nc1ccccc1 was read as Mtb bLac sens 93.5, Mtb growth 14.4µM*, YopH PTP inh -17.1, RecA splice inh 10.6 and Arbovirus inh -31.4.
For Cc1cc2c(cc1S(=O)(=O)CCC(=O)NC1CCCCC1C)OCC(=O)N2 (configuration not stated) the results were Mtb bLac sens 0.1 and RecA splice inh -1.3.
N#CC1(NC(=O)COC(=O)c2ccccc2SCC(=O)N2CCCC2)CCCCC1 was read as Mtb bLac sens -7.2 and RecA splice inh 5.8.
`Cc1cccc(N(Cc2ccccc2)C(=O)Cc2ccc(S(=O)(=O)N3CCOCC3)s2)c1` gave Mtb bLac sens 2.6 and RecA splice inh 5.5.
COc1cccc(NC(=O)COC(=O)c2c3c(nc4ccccc24)CCC(C)C3)c1 (configuration not stated) was read as Mtb bLac sens 79.3, Mtb growth 13.8%, YopH PTP inh -81.8, RecA splice inh 1.1 and Arbovirus inh -31.3.
`CCn1c(SCC(=O)NC2(C#N)CCCCC2)nc2ccccc2c1=O` gave Mtb bLac sens -3.5 and RecA splice inh -3.7.
Screening CC(=O)c1cccc(NC(=O)c2ccc3c(c2)CCCC3)c1 returned Mtb bLac sens 1.5 and RecA splice inh 0.5.
For CCC(=O)Nc1ccc(C(=O)NNC(=O)c2cc([N+](=O)[O-])cc([N+](=O)[O-])c2)cc1 the results were Mtb bLac sens -1.0, Mtb growth -1.1%, RecA splice inh -3.2 and Arbovirus inh 4.8.
`COc1ccc(-n2nnc3c(=O)n(CC(=O)N4CCCc5ccccc54)cnc32)cc1` gave Mtb bLac sens -7.0, Mtb growth 3.7%, YopH PTP inh -24.8, RecA splice inh -0.4, Arbovirus inh -2.3 and Arbovirus inh repeat -2.2.
Screening O=c1[nH]c(CSc2nnnn2-c2ccc(Cl)cc2)nc2ccccc12 returned Mtb bLac sens -3.9, Mtb growth 0.6%, RecA splice inh 0.8 and Arbovirus inh 0.5.
CCCN1Cc2cccc(C(=O)N3CCN(c4ccccc4)CC3)c2C1=O was read as Mtb bLac sens -1.7, Mtb growth -3.6%, YopH PTP inh -1.2, RecA splice inh -1.1 and Arbovirus inh -4.2.
`Cc1cccc(Nc2ncnc3nc[nH]c23)c1` gave Mtb bLac sens -3.7, Mtb growth 8.7%, YopH PTP inh -17.7, RecA splice inh 1.0, Arbovirus inh 10.3 and Arbovirus inh repeat -1.9.
For COc1cc2c(cc1NC(=O)c1cccc([N+](=O)[O-])c1C)oc1ccccc12 the results were Mtb bLac sens -5.5, Mtb growth -0.7%, YopH PTP inh -22.8, RecA splice inh 2.6 and Arbovirus inh -9.7.
`COC(=O)C(C)N(C(=O)c1ccc(C(=O)c2ccccc2)cc1)c1c(C)cccc1C` (configuration not stated) gave Mtb bLac sens -9.4, Mtb growth 4.8%, YopH PTP inh -22.6, RecA splice inh 10.0 and Arbovirus inh -37.5.
COCCn1c(NCc2ccco2)nc2c1c(=O)[nH]c(=O)n2C was read as Mtb bLac sens -0.6, Mtb growth 7.3%, RecA splice inh -1.5 and Arbovirus inh -0.7.
Screening Cc1ccccc1S(=O)(=O)Cc1ccc(C(=O)NCCCN2CCN(C)CC2)o1 returned Mtb bLac sens -0.9, Mtb growth -4.5%, YopH PTP inh -37.0, RecA splice inh -6.6 and Arbovirus inh -0.7.
Screening CC(=O)N(c1c(C)n(C)n(-c2ccccc2)c1=O)C1(C(=O)NC2CCCCC2)CCCCC1 returned Mtb bLac sens 0.8, Mtb growth 4.2%, YopH PTP inh -0.6, RecA splice inh -1.1 and Arbovirus inh 10.8.
For C/C(CC(=O)NCc1ccco1)=N\NC(=O)Cc1cccc2ccccc12 the results were Mtb bLac sens -4.6, Mtb growth -4.8%, YopH PTP inh -38.2, RecA splice inh 3.0 and Arbovirus inh 3.6.
Screening CCOc1cc(S(=O)(=O)NCC2CCCO2)ccc1F (configuration not stated) returned Mtb bLac sens -0.5 and RecA splice inh -0.7.
O=C(OCc1c(Cl)cccc1Cl)c1ccncc1 was read as Mtb bLac sens 3.8, Mtb growth 5.9%, YopH PTP inh -28.2, RecA splice inh -1.8 and Arbovirus inh -5.8.
For COc1ccc(Cl)cc1NC(=O)C1CCN(S(C)(=O)=O)CC1 the results were Mtb bLac sens -9.9 and RecA splice inh 2.0.
For CCN(CC(=O)NCCc1ccc(S(N)(=O)=O)cc1)Cc1nc2cc(OC)c(OC)cc2c(=O)[nH]1 the results were Mtb bLac sens -7.3, Mtb growth -8.4%, YopH PTP inh -15.1, RecA splice inh -1.2 and Arbovirus inh 0.3.
`CCOC(=O)c1cc(-c2ccccc2)sc1NC(=O)CN1C(=O)NC(CC)(c2ccc(F)cc2)C1=O` (configuration not stated) gave Mtb bLac sens 11.9, Mtb growth 2.0%, YopH PTP inh 5.0, RecA splice inh 4.4 and Arbovirus inh -21.5.
For CC(=O)/C(=N\Nc1ccccc1)Sc1nnc(-c2ccccc2)n1-c1ccccc1 the results were Mtb bLac sens 1.9, Mtb growth -1.6%, YopH PTP inh -11.2, RecA splice inh 1.5 and Arbovirus inh 3.3.
For CC(C)C(C(=O)NCc1ccco1)N(Cc1ccco1)C(=O)CNS(=O)(=O)c1ccc(F)cc1 (configuration not stated) the results were Mtb bLac sens -1.5 and RecA splice inh 0.2.
`COc1ccc(-c2nc(SC(CC(=O)NCCO)c3cccs3)n[nH]2)cc1` (configuration not stated) gave Mtb bLac sens -0.8, Mtb growth -0.9%, RecA splice inh 0.7 and Arbovirus inh 1.8.
CCc1nnc(NC(=O)c2ccc(S(=O)(=O)N3CCCC(C)C3)cc2)o1 (configuration not stated) was read as Mtb bLac sens 84.2 and RecA splice inh 0.3.
CCc1cccc(CC)c1NC(=S)NCCc1c(C)[nH]c2ccc(C)cc12 was read as Mtb bLac sens 1.6, YopH PTP inh -12.6, RecA splice inh 15.3 and Arbovirus inh -34.7.
C=CCn1c(CC(=O)Nc2cccc(OC)c2)nnc1SCC(=O)NC1CCCCC1 was read as Mtb bLac sens -11.5, Mtb growth -8.6%, YopH PTP inh -35.1, RecA splice inh 1.6 and Arbovirus inh 2.3.
`CCOc1ccc(CCNC(=O)COC(=O)c2ccc(C)c([N+](=O)[O-])c2)cc1OCC` gave Mtb bLac sens inconclusive and RecA splice inh 2.8.
For Cc1ccc(S(=O)(=O)N2CCN(C(=O)CN3C(=O)NC4(CCCCC4)C3=O)CC2)c(C)c1 the results were Mtb bLac sens -7.4 and RecA splice inh -1.5.
Cc1c(CN2CCC(n3nccc3NC(=O)c3cccc(F)c3)CC2)cnn1C was read as Mtb bLac sens -15.5 and RecA splice inh -0.9.
Screening COc1cccc(CC(NC(C)=O)C(=O)NC2CCN(S(=O)(=O)c3cccc4ccccc34)CC2)c1 (configuration not stated) returned Mtb bLac sens 9.9, Mtb growth -1.9%, YopH PTP inh -12.0, RecA splice inh 0.8 and Arbovirus inh -14.4.
For [O-][N+]1=C(c2cccs2)CN(O)C1 the results were Mtb bLac sens -8.1, Mtb growth -8.0%, YopH PTP inh -23.6, RecA splice inh -4.7 and Arbovirus inh 2.8.
COc1cc(NC(=O)c2cccs2)c(C(=O)OCC(=O)NC(=O)NCc2ccccc2)cc1OC was read as Mtb bLac sens 98.6, Mtb growth 74.9%, YopH PTP inh -0.3, RecA splice inh 0.9 and Arbovirus inh -8.9.
For [O-][n+]1onc2c1CCc1c-2nc(-c2ccccc2)n1OCc1ccccc1 the results were Mtb bLac sens 1.5, Mtb growth -8.1%, YopH PTP inh -29.5, RecA splice inh -0.2 and Arbovirus inh -8.5.
O=C(CNC(=O)c1ccco1)NCC(=O)OCC(=O)c1ccc(Cl)c([N+](=O)[O-])c1 was read as Mtb bLac sens inconclusive and RecA splice inh 0.8.
Screening CCOc1ncccc1C(=O)Nc1nnc(C)s1 returned Mtb bLac sens -1.5, Mtb growth -1.8%, RecA splice inh -0.7 and Arbovirus inh 15.7.
Cc1ccnn1CC(=O)N/N=C/c1ccc2c(c1)OCO2 was read as Mtb bLac sens 2.2, Mtb growth -9.7%, YopH PTP inh -26.0, RecA splice inh 0.2 and Arbovirus inh -0.8.
`Cc1cc(-c2nnc(SCC(=O)N3C(C)CCCC3C)o2)no1` (configuration not stated) gave Mtb bLac sens 6.0, Mtb growth -6.3%, YopH PTP inh -22.7, RecA splice inh -1.4 and Arbovirus inh -4.9.
Screening NC(=O)N/N=C/c1cc(F)cc(F)c1 returned Mtb bLac sens -9.0, Mtb growth -8.6% and RecA splice inh 3.4.
Cc1oc(-c2cc(F)ccc2F)nc1CN1CCCN(C(=O)c2ccco2)CC1 was read as Mtb bLac sens -2.2, Mtb growth 2.4%, RecA splice inh 0.8 and Arbovirus inh 12.1.
Screening CCOC(=O)Cn1nnc(-c2ccc(S(C)(=O)=O)cc2)n1 returned Mtb bLac sens -2.2, Mtb growth -7.4%, YopH PTP inh -3.0, RecA splice inh 0.6 and Arbovirus inh -0.6.

Pulled by compound from the entries so far (3):
`Cc1cc(-c2nnc(SCC(=O)N3C(C)CCCC3C)o2)no1` (configuration not stated) gave Mtb bLac sens 6.0, Mtb growth -6.3%, YopH PTP inh -22.7, RecA splice inh -1.4 and Arbovirus inh -4.9.
C=CCn1c(CC(=O)Nc2cccc(OC)c2)nnc1SCC(=O)NC1CCCCC1 was read as Mtb bLac sens -11.5, Mtb growth -8.6%, YopH PTP inh -35.1, RecA splice inh 1.6 and Arbovirus inh 2.3.
Screening CCOC(=O)Cn1nnc(-c2ccc(S(C)(=O)=O)cc2)n1 returned Mtb bLac sens -2.2, Mtb growth -7.4%, YopH PTP inh -3.0, RecA splice inh 0.6 and Arbovirus inh -0.6.

(further entries)
Screening CCOC(=O)c1cccc(NC(=O)CCn2cccc2)c1 returned Mtb bLac sens 1.6, Mtb growth -5.0%, YopH PTP inh -48.7, RecA splice inh -4.5 and Arbovirus inh -0.1.
Cc1ccccc1N1CC(C(=O)Nc2ccc(S(=O)(=O)N3CCOCC3)cc2)CC1=O (configuration not stated) was read as Mtb bLac sens -1.7 and RecA splice inh 1.4.
O=c1oc(-c2ccco2)nc2ccccc12 was read as Mtb bLac sens -11.9, Mtb growth -6.2%, YopH PTP inh -17.0, RecA splice inh 10.5 and Arbovirus inh 2.2.
For COc1ccc2cc(CN(CCO)C(=O)c3ccccc3F)c(=O)[nH]c2c1 the results were Mtb bLac sens -7.0, YopH PTP inh 27.0, RecA splice inh -1.9 and Arbovirus inh 7.8.
For COc1ccc(C)cc1NC(=O)CC1COc2ccccc2O1 (configuration not stated) the results were Mtb bLac sens -3.1, Mtb growth -0.6%, RecA splice inh 0.7 and Arbovirus inh -2.6.
O=CN1CCN(C(=O)CN2C(=O)c3ccccc3C2=O)CC1 was read as Mtb bLac sens -4.6, YopH PTP inh -27.3, RecA splice inh 0.6 and Arbovirus inh 5.2.
Cc1cccc(N(CC(=O)NC2CC2)S(=O)(=O)c2ccc(Cl)cc2)c1 was read as Mtb bLac sens 4.7 and RecA splice inh 2.4.
For O=C(COc1ccc(-c2ccccc2)cc1)N1CCN(C(=O)c2cccnc2)CC1 the results were Mtb bLac sens -0.1, Mtb growth 4.8%, YopH PTP inh -48.2, RecA splice inh 1.9 and Arbovirus inh -1.9.
`Cc1nn(-c2ccccc2)c2[nH]c(=O)c(CNCC3CCCO3)cc12` (configuration not stated) gave Mtb bLac sens -9.6, Mtb growth -5.6%, YopH PTP inh -13.5, RecA splice inh 0.5 and Arbovirus inh -0.4.
`O=C(N1CCCCC1)N1CCC(c2nc3ccccc3[nH]2)CC1` gave Mtb bLac sens -2.0 and RecA splice inh 0.6.
For COCc1cc(C)nc(OCC(=O)N/N=C/c2ccc(-c3cc([N+](=O)[O-])ccc3Cl)o2)c1C#N the results were Mtb bLac sens 1.9, Mtb growth -3.2%, RecA splice inh -0.1 and Arbovirus inh -5.2.
For CN1C(=O)c2cccc3c(S(=O)(=O)Nc4ccccc4F)ccc1c23 the results were Mtb bLac sens -2.3 and RecA splice inh -1.8.
Screening NC(=O)/C(=C\c1ccco1)NC(=O)c1ccc(Br)o1 returned Mtb bLac sens 0.3 and RecA splice inh -1.1.
For C[C@@H]1NC(=O)[C@H](CCCN=C(N)N)NC(=O)c2cc([N+](=O)[O-])cc(I)c2OCC[C@@H](C(N)=O)NC1=O the results were Mtb growth -15.2%, YopH PTP inh -27.1 and Arbovirus inh 2.9.
CCC(=O)Nc1ccc(Oc2ccc3c(c2)C(=O)N(c2ccc(O)cc2)C3=O)cc1 was read as Mtb bLac sens -12.0, Mtb growth -4.5%, YopH PTP inh 7.9, RecA splice inh 2.5 and Arbovirus inh 7.5.

Some of the compounds tested, so the mix of outcomes need not match the whole.
